CSC inhib – cancer stem cell viability inhibitors, primary screen, luminescence. cancer stem cell-like cells viability. inhibition, % at 7.5 µM. hit rate 1.1% among 300,000. AID 2717, 2010;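 active means mean at 75% or more and at least half the replicates too; tested in HMLE shEcad cells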;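 further: 0% = median of negative and 100% = median of positive control wells; the first replicate is given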
Env fusion inh – inhibitors of HIV-1 Env-driven cell-cell fusion, primary screen, HeLa-JRFL effector, CEM21 target cells, luciferase; AID 651610, 2012; inhibition, % at 12.3 µM; hit rate 1.1% among 360,000;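 active means mean replicate inhibition score of at least 50 and every replicate individually at or above 50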;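 further: 0% = plate neutral controls and 100% = maraviroc near 300 nM; one replicate is shown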
MT1-MMP act inh – blockers of MT1-MMP proenzyme processing, primary screen, HT1080 RFP-PRO-GFP cells, GFP/RFP fluorescence; Matrix metalloproteinase-14 (Homo sapiens), P50281; GFP/RFP ratio fluorescence, overnight; percent of plate control window, DMSO zero; GFP/RFP ratio change, % at 20 µM; hit rate 0.061% among 360,000;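 active means GFP/RFP ratio change of at least 30% with cell ATP level not reduced by more than half and red fluorescence within 50% of control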; further: strong numbers were not always called active
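Test system: HT1080 RFP-PRO-GFP cells; Benchmarks: DMSO and RFP-L50D-GFP cell wells; Timing: cells overnight before dosing, compound overnight, 37 °C, 5% CO2; Compound: one 20 µM compound dose with 1% DMSO; Read-out: GFP/RFP fluorescence ratio.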
eIF4H FP inh – human eIF4H binding inhibitors, primary screen, translation initiation inhibitor project, biochemical, uHTS, fluorescence polarization | Eukaryotic translation initiation factor 4H (Homo sapiens), Q15056 | eIF4H fluorescence polarization binding assay | inhibition, % at 35 µM | hit rate 0.94% among 290,000 | AID 2012, 2009;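 active means 50% or more with normal probe brightness, or confirmed in later tests; about a fifth of its hits are not listed in these tables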;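 further: calls also rest on retests at 20 µM and on dose response follow-up; 0% = protein and probe with vehicle and 100% = probe without protein; strong numbers were not always called active; many hits fall short of the cut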
PABP polyA inh – PABP poly(A) RNA binding inhibitors, primary screen, biochemical, fluorescence polarization, uHTS | Polyadenylate-binding protein 1 (Homo sapiens), P11940 | inhibition, % at 35 µM | hit rate 1% among 290,000;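 active means 50% or more with normal probe brightness, or confirmed in later tests; about a fifth of its hits are not listed in these tables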;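 further: calls also rest on retests at 20 µM and on dose response follow-up; controls were probe without protein and protein plus probe with vehicle; some compounds called inactive have numbers as strong as hits; many hits fall short of the cut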
Target sequence (P11940 whole entry, looked up): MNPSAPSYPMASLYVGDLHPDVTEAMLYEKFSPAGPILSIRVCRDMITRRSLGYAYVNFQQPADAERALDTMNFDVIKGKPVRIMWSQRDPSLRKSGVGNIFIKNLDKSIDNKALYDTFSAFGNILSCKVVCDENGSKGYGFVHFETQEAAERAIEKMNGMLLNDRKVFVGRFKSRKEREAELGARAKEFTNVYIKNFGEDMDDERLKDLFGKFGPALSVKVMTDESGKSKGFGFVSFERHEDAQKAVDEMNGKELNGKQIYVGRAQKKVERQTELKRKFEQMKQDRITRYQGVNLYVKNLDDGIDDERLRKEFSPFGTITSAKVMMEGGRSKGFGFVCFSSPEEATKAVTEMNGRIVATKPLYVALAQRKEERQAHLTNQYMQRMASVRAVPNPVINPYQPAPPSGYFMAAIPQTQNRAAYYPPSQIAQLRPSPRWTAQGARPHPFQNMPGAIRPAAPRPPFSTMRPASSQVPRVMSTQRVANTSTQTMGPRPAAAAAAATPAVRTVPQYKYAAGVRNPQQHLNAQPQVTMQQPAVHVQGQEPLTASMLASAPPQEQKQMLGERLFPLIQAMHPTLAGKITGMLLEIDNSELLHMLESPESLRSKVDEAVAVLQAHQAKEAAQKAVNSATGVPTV
Yeast UUG start – modulators of yeast start codon fidelity, primary screen, whole organism, S. cerevisiae, single point, plate reader; hit rate 0.13% among 350,000; activity score, % at 18.7 µM; S. cerevisiae UUG-firefly luciferase reporter, luminescence/redox ratio;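 active means replicate mean at a twofold rise or more, about +100% in these data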;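 further: firefly luciferase made from a UUG start codon reports start codon fidelity; reporter light over untreated wells divided by growth signal over untreated wells; some hits fall short of that in this replicate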
Rce1 inh – yeast Rce1p protease inhibitors, primary screen, biochemical, fluorescence, cell-free homogeneous; yeast membranes, quenched prenylated peptide cleavage fluorescence; hit rate 0.27% among 290,000; AID 2563, 2010; calls only;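 active means fall in fluorescence gain of 50% or more versus controls, with final raw signal at or below 3038400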;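 further: plate controls were neutral control wells for no effect and wells lacking membranes for full effect; tested at 10 µM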
MT1-MMP act inh RFP – also measured in MT1-MMP act inh; calls as there; RFP signal change, %; measured here: RFP expression control read;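 0 = vehicle wells; hits needed this value within 50% of zero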
The depositor's hits bear a star; i = inactive; x = no result given; & = joins results of further samples. The order is random. Share with any hit: about 2.9%.

no. | SMILES | CSC inhib | Env fusion inh | MT1-MMP act inh | MT1-MMP act inh RFP | eIF4H FP inh | PABP polyA inh | Yeast UUG start | Rce1 inh
1 | Cc1cc(C)c(NC(=O)COc2nncc3ccccc23)c(C)c1 | -6.9 | 19.1 | 2.7 | 2.6 | -11.3 | 3.0 | -3.5 | i
2 | Cc1c(C#N)c(O)n(C)c(=O)c1N=Nc1ccc(S(N)(=O)=O)cc1 | x | -125.3 | 5.8 | 7.1 | 35.5 | -6.9 | x | i
3 | COc1c(C)cc(Br)cc1C(=O)O | 1.1 | x | -2.5 | 1.7 | -13.1 | -8.5 | -18.5 | i
4 | COc1ccc(C(=O)NCCN2CCCC2)cc1OC | 12.6 | 8.4 | -1.3 | -0.8 | -5.3 | 23.4 | x | i
5 | Cc1ccc2cc(CN(CC(C)C)S(=O)(=O)c3ccccc3)c(=O)[nH]c2c1 | 1.4 | x | -0.3 | -3.2 | -0.1 | 13.4 | -11.8 | i
6 | Cc1nc2scc(C)n2c(=O)c1S(=O)(=O)NCCc1ccc(Cl)cc1 | -17.2 | -19.5 | -0.3 | 0.4 | -5.6 | 7.2 | -3.3 | i
7 | CCCOc1ccc(C(C)(O)CN2CCOCC2)cc1 (stereo unspecified) | -15.6 | x | 0.0 | 0.1 | 1.3 | -0.9 | -17.4 | i
8 | COc1ccc2nc3c(nc2c1)CCCC3 | -1.2 | 11.1 | -2.4 | 2.0 | -4.2 | 1.8 | -15.0 | i
9 | O=C(NCCc1ccc(Cl)cc1)C1CCC(=O)N(C2CCCCCC2)C1 (stereo unspecified) | -22.7 | 2.3 | 2.4 | 1.4 | -9.8 | -8.8 | -1.1 | i
10 | COc1ccc(S(=O)(=O)Nc2ccc3c(c2)C(=O)N([C@H](C)CO)C[C@H](C)[C@@H](CN(C)C(=O)Nc2ccc(C(F)(F)F)cc2)OCCCC[C@H](C)O3)cc1 | x | -33.9 | -3.8 | -6.6 | x | x | -9.2&-19.4 | x
11 | Cc1cc(OCC(=O)Nc2ccc(N3CCN(C)CC3)cc2)ccc1Cl | 38.9 | -34.3 | -3.9 | -1.9 | 4.0 | 4.1 | -5.8 | i
12 | O=C(N/N=C/c1cc(Cl)ccc1O)c1ccccc1Br | 20.8 | -9.1 | 5.7 | -1.5 | 10.3 | -7.6 | x | i
13 | COC(=O)c1cc(C(=O)NCCC(C)C)cc([N+](=O)[O-])c1 | -1.2 | 14.5 | -0.1 | 2.9 | -10.2 | 6.0 | 1.1 | i
14 | CC1(C)CC(=O)C=C(N2CCCC2)C1 | -6.3 | -32.6 | 3.8 | 4.8 | -12.9 | 2.1 | -18.5 | i
15 | CCn1ncc(/C=C/C(=O)c2ccccc2)c1C | -10.2 | -30.4 | 2.8 | 2.9 | 8.5 | 3.4 | x | i
16 | CCOC(=O)C1Oc2ccccc2C(c2ccc(OC)cc2)=C1C(=O)OC (stereo unspecified) | x | -1.8 | -4.5 | -4.8 | x | x | 2.4 | x
17 | CC1(C)CC(CCNC(=O)c2ccco2)CC(C)(C)N1 | -8.0 | -50.9 | 5.5 | 12.8 | -1.0 | -10.8 | -18.9 | i
18 | Cc1cc(C(F)(F)F)n2nc(-c3cnn(C)c3C(F)(F)F)cc2n1 | 6.9 | -68.4 | -3.7 | -1.3 | 19.3 | 10.6 | -18.9 | i
19 | CCc1cccc(C)c1NC(=O)CN1C(=O)NC(CCc2ccccc2)C1=O (stereo unspecified) | -11.8 | -2.6 | -2.4 | 2.2 | x | x | -3.1 | x
20 | CC(NC(=O)CN1C(=O)COc2ccccc21)c1ccccc1 (stereo unspecified) | 9.5 | x | 2.1 | 2.7 | -1.0 | -2.5 | -23.8 | i
21 | Nc1ccc2oc(-c3cccs3)nc2c1 | x | i | 1.5 | 0.4 | -4.4 | -0.6 | -6.3 | i
22 | COc1cccc(-n2nnc3c(=O)n(Cc4ccc(Cl)cc4)cnc32)c1 | 11.7 | 8.4 | -5.2 | -1.7 | -10.4 | -2.6 | -1.2 | i
23 | O=C(Cc1ccc(Cl)cc1)N1CCN(c2ccc(F)cc2)CC1 | 2.1 | 3.1 | 6.2 | -1.3 | 10.3 | -0.2 | -5.7 | i
24 | COc1cccc(C(=O)CSc2nnc(COc3cccc4cccnc34)o2)c1 | -8.6 | x | -2.5 | 5.7 | 3.5 | 2.0 | -20.3 | i
25 | CCOC(=O)N1CCN(c2c(N3CCc4ccccc4C3)c(=O)c2=O)CC1 | -4.9 | 20.2 | 2.4 | 3.9 | 9.0 | -11.8 | -7.3 | x
26 | Cc1cc(NC(=O)C(C)SCC(=O)Nc2nc3c(F)cc(F)cc3s2)no1 (stereo unspecified) | 16.0 | x | -8.7 | -1.5 | x | x | -14.5 | x
27 | O=C(Cn1nc(C(=O)O)c2ccccc2c1=O)Nc1ccc(F)cc1F | -8.2 | 2.0 | 1.8 | 3.8 | -0.9 | 2.8 | -5.6 | i
28 | O=C(NCc1ccc2c(c1)OCO2)C1CCCN1S(=O)(=O)c1ccc(Cl)cc1 (stereo unspecified) | -10.2 | 1.3 | 0.2 | 2.4 | 0.7 | -5.8 | x | i
29 | COC(=O)c1ccc(OCCCCN2CC(C)OC(C)C2)cc1 (stereo unspecified) | 16.5 | 8.3 | 1.2 | 1.1 | -1.8 | -1.8 | -2.0 | i
30 | Cc1ccc([N+](=O)[O-])cc1NC(=O)C[n+]1ccccc1 | -6.7 | 10.1 | -1.0 | 2.6 | 5.7 | 5.5 | x | i
31 | CCOC(=O)CNC(=O)CSc1nc2c(C)cccc2cc1CC | -3.8 | 3.0 | -2.0 | 1.8 | -7.2 | -1.1 | x | i
32 | COc1ccc(-c2ccnc3nc(/N=C/N(C)C)nn23)cc1 | -16.1 | -9.7 | x | x | -9.8 | 13.1 | x | i
33 | COc1ccccc1NC(=O)/C=C/c1ccc2c(c1)OCO2 | 34.1 | -127.6 | 3.0 | 0.3 | -10.6 | 16.9 | x | i
34 | CCN(C(=O)Cc1c(C(=O)O)n(CC)c2ccccc12)c1cccc(C(F)(F)F)c1 | -13.8 | 9.1 | 1.1 | 3.9 | 4.2 | 3.8 | -2.6 | i
35 | CCN1C(=O)[C@H]2[C@@H](c3ccc(-c4ccc5c(c4)OCO5)cc3)N3CCC[C@@]3(C(=O)OC)[C@H]2C1=O | 16.2 | -5.9 | 3.3 | -11.8 | x | x | -8.4 | i
36 | Cc1ccc(-n2nc3c(c2NC(=O)c2ccc(S(=O)(=O)N4CCOCC4)cc2)CSC3)c(C)c1 | x | x | 3.0 | -1.6 | -15.2 | -6.5 | -18.5 | x
37 | CC(C)Nc1nc(Oc2cccc(Cl)c2Cl)cc(C(F)(F)F)n1 | 45.6 | -6.9 | -19.8 | -12.8 | -10.1 | -9.0 | -0.5 | i
38 | CCOC(=O)C(CCCCCCP(=O)(c1ccccc1)c1ccccc1)NC(C)=O (stereo unspecified) | -2.8 | 5.6 | -1.0 | 1.7 | -10.5 | -8.1 | -3.2 | i
39 | Nc1nc(SCC(=O)N2CCCC2)[nH]c(=O)c1-c1ccccc1 | -10.9 | x | -1.0 | 0.4 | -7.2 | -8.1 | -13.8 | i
40 | Cc1ccc(OCC(=O)NCc2ccccc2)c([N+](=O)[O-])n1 | -9.2 | 8.6 | 3.6 | 4.8 | 5.5 | -5.5 | 2.9 | i
41 | N#Cc1c(-c2ccccc2)cc(C2CC2)nc1N | -15.9 | 14.1 | -1.7 | -1.5 | -6.6 | -5.9 | -35.5 | i
42 | NC(=O)c1ccc(Br)c(S(=O)(=O)N2CCCCC2)c1 | -16.8 | x | 2.4 | 1.3 | 10.5 | -6.2 | -10.3 | i
43 | CC1(C)CC(=O)C2=C(C1)N(Cc1cccnc1)C(=O)C2(NC(=O)c1ccc(F)cc1)C(F)(F)F (stereo unspecified) | -5.3 | -5.1 | -0.5 | 8.3 | 0.5 | -3.1 | -4.6 | i
44 | CN(C)C1=NCCN1CCC1CCCC1 | -13.0 | -6.2 | 2.3 | 3.0 | 6.2 | 14.4 | -10.8 | i
45 | COc1ccc(/C=C/C(=O)c2cc(F)ccc2OC(=O)c2ccccc2)cc1OC | 46.7 | i | 14.3 | -9.5 | x | x | -12.4 | i
46 | Cc1ccc(CS(=O)Cc2ccc(C(=O)N3CCN(C4CCCCC4)CC3)o2)cc1 (stereo unspecified) | 10.9 | -3.7 | 1.1 | 4.8 | -6.3 | 2.3 | -5.0 | i
47 | CC1CCN(CCCNC(=O)COc2cc(=O)n(C)c3ccccc23)CC1 | 0.6 | -32.0 | 6.6 | 8.3 | 10.1 | 6.9 | -21.3 | i
48 | CC(=O)c1cccc(NC(=O)C2CCN(C(=O)c3ccc([N+](=O)[O-])cc3)CC2)c1 | -9.0 | 25.3 | 3.0 | 3.9 | -0.2 | -3.7 | -10.3 | i
49 | Cn1cc(CN2CCCCC2C(=O)Nc2ccc(-n3cccn3)cc2)cn1 (stereo unspecified) | -5.2 | 10.5 | -2.2 | 0.8 | -5.2 | -11.5 | -21.0 | i
50 | CC(C)CCn1nnnc1C(c1ccc(F)cc1)N1CCC(C(N)=O)CC1 (stereo unspecified) | 3.9 | x | -2.4 | 8.4 | 0.6 | 1.3 | 8.3 | i
51 | COc1ccc(C(c2c(N)[nH]c(=S)[nH]c2=O)c2c(N)[nH]c(=S)[nH]c2=O)cc1 | -16.7 | -39.9 | -3.1 | -3.6 | 2.4 | 7.8 | -30.5 | i
52 | CN1CCN(C(=S)NC(=O)/C=C/c2ccccc2Cl)CC1 | x | 13.1 | 4.8 | 4.4 | -4.9 | -1.4 | x | i
53 | Cc1nc(-c2cccnc2)sc1C(=O)Nc1cccc(C(F)(F)F)c1 | x | 52.9 | 0.1 | -6.6 | -2.7 | -11.8 | -6.9 | i
54 | CCOC(=O)CSc1nnc(-c2cc(OC)c(OC)c(OC)c2)o1 | -8.1 | -20.2 | 5.9 | -0.8 | -5.4 | 0.1 | x | i
55 | O=C(NC1CC2CCC1C2)C1CCN(S(=O)(=O)c2ccc(-c3nn[nH]n3)cc2)CC1 (stereo unspecified) | -7.7 | x | 2.9 | 7.6 | -1.1 | 7.5 | -13.5 | i
56 | NC(Cc1ccc(F)cc1)c1csc(Nc2ccc(S(N)(=O)=O)cc2)n1 (stereo unspecified) | x | -11.7 | -6.7 | -2.0 | x | x | -11.9 | x
57 | CC(=O)N1CCSc2ccc(S(=O)(=O)NCc3ccc(F)cc3)cc21 | 32.2 | 6.2 | 0.0 | -10.8 | 1.6 | 9.1 | -0.6 | i
58 | Cc1cc(Cl)ccc1NC(=O)CCC(=O)N/N=C/c1cc([N+](=O)[O-])ccc1O | 16.7 | 28.4 | 3.0 | 0.2 | 16.4 | 19.2 | x | x
59 | COc1ccc(Br)cc1C(=O)Nc1ccccc1-c1ccccc1 | 57.3 | x | -11.1 | -2.9 | 3.8 | -5.3 | -10.2 | i

One compound at a time, as listed above:
Entry for Cc1nc(-c2cccnc2)sc1C(=O)Nc1cccc(C(F)(F)F)c1 : CSC inhib = x; Env fusion inh = 52.9; MT1-MMP act inh = 0.1; MT1-MMP act inh RFP = -6.6; eIF4H FP inh = -2.7; PABP polyA inh = -11.8; Yeast UUG start = -6.9; Rce1 inh = i
Entry for Cc1ccc2cc(CN(CC(C)C)S(=O)(=O)c3ccccc3)c(=O)[nH]c2c1 : CSC inhib = 1.4; Env fusion inh = x; MT1-MMP act inh = -0.3; MT1-MMP act inh RFP = -3.2; eIF4H FP inh = -0.1; PABP polyA inh = 13.4; Yeast UUG start = -11.8; Rce1 inh = i

Screening data deposited in PubChem BioAssay by several laboratories.
